High-throughput results (PubChem)
TRPV1 potentiator – enhances activation of the human vanilloid receptor TRPV1; TRPV1-expressing cells, Fluo-8 calcium influx, capsaicin EC20 potentiation; host cell line not named in the record; control for the full effect not named in the record; AID 540277; actives 0.02% (n = 320,000); potentiation, % at 8.33 µM; Q8NER1; active means potentiation above 80%; inconclusive means 30% to 80%; inactive means below 30%; also: 0% is about no effect
Target sequence (Q8NER1 whole entry, looked up): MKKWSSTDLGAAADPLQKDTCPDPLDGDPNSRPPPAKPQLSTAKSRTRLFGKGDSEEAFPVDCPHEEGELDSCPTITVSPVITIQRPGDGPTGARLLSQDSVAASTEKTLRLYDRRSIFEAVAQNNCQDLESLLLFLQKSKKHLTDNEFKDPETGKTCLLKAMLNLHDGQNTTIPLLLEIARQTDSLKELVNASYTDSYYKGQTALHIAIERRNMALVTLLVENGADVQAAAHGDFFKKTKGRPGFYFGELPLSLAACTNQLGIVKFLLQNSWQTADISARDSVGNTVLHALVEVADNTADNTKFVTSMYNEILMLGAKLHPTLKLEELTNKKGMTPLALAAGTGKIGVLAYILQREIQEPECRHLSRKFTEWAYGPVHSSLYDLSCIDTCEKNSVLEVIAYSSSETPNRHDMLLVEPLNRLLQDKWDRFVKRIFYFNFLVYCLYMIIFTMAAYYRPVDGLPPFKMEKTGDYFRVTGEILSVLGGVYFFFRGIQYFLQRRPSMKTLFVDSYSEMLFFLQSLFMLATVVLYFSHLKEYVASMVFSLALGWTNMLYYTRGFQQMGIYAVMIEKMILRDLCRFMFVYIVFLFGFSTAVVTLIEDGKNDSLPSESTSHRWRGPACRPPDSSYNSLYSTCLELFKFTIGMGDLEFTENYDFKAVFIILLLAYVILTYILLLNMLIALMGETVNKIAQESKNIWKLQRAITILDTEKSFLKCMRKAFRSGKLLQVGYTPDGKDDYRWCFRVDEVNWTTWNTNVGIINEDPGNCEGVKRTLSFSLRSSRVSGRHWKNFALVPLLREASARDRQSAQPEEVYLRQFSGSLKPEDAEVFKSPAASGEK
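TRPV1-expressing cells were cultured overnight at 35.5C and loaded with Fluo-8 calcium dye for 40 to 90 min at room temperature. After a 10 s baseline, compound was added and calcium influx was read kinetically for 3 min (ex 480/em 520 nm).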
Six1-Eya2 blk – blocks human Six1 binding to Eya2; activity change, % (test concentration not listed); AID 651725; AlphaScreen GST-Six1/His-Eya2 binding, biochemical; active compounds read low; control for the full effect not named in the record; Q15475+O00167; actives 0.56% (n = 360,000); in the data active = activity change below about -65%; inconclusive = about -30% to -65%; inactive = above about -30%; also: % is scaled to controls: 0 for no effect and ±100 for the full control effect
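GST-Six1 + His-Eya2 (5X stock: 250/500 nM); Tris pH 8.0, 300 mM NaCl, 0.05% BSA, 0.02% Tween 20; GSH donor/Ni acceptor beads; 1 h 37 °C dark; AlphaScreen readout.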
TRPML1 ag – activates the human TRPML1 channel. TRPML1-expressing cells, Ca2+ dye fluorescence, FDSS; host cell line not named in the record; reference of the full effect not given here. activation, % (test concentration not listed). actives 0.12% (n = 410,000); in the data active = activation above about 50%; inconclusive = about 30% to 50%; inactive = below about 30%; also: 0% is about no effect; the text of the record puts the active cut at 80%
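Tet-induced TRPML1-DL cells, 1,500 per well, cultured overnight, were loaded with a no-wash Ca2+ dye for 45–90 min. Calcium fluorescence was recorded on the FDSS for 110 s after compound addition, before the EC80 agonist (4 uM 54-4) was added.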
TRPML1 blocker – blocks the human TRPML1 channel; actives 0.02% (n = 390,000); activity change, negative = inhibition, % (concentration not given with the values); TRPML1-inducible cells, Ca2+ dye fluorescence, FDSS; active compounds read low; inhibition of EC80 agonist-evoked calcium signal; in the data active means activity change below about -50%; inconclusive means about -30% to -50%; inactive means above about -30%;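 also: stimulus is agonist 54-4 at its EC80 concentration; % is scaled to controls: 0 for no effect and ±100 for the full control effect; the text of the record puts the active cut at -80%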
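Calcium fluorescence in TRPML1-DL cells induced overnight with Tet: a 110 s read after compound pin addition, then a 110 s antagonist read after challenge with 54-4 at 4 uM final (EC80).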
D2 PAM – positive allosteric modulators of human D2 dopamine receptor | DiscoveRx D2 beta-arrestin cells, luminescence, 90 min; 100% = 57 uM dopamine signal | potentiation, % (test concentration not listed) | actives 0.23% (n = 360,000) | AID 624464; active = potentiation of 50% or more; inconclusive = 30% to 50%; inactive = 30% or less;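 also: compound concentration not given in the record; tested on top of an EC20 dose of dopamine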
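D2 cells co-treated with compound plus 50 nM dopamine (EC20) for 90 min at 37 deg C to detect potentiation. Beta-arrestin recruitment was read as enzyme-fragment luminescence after 1 h at ambient temperature. Full response was set by 57 uM dopamine.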
CtBP-E1A blk – inhibitors of CtBP/E1A interaction; activity change, % (test concentration not listed); actives 0.49% (n = 340,000); AlphaScreen GST-E1A/His-CtBP binding, 1536-well; active compounds read low; control for the full effect not named in the record; in the data active means activity change below about -65%; inconclusive means about -30% to -65%; inactive means above about -30%; also: % is scaled to controls: 0 for no effect and ±100 for the full control effect
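Homogeneous bead-based format: GST-tagged E1A captured on glutathione donor beads, His-tagged CtBP on nickel acceptor beads; compounds precede bead addition by 2 h at 37 °C.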
* hit, by the source's call.

`O=C(c1cccnc1)n1nc(NCc2ccccc2)nc1NCc1ccccc1` gave TRPV1 potentiator 2.4, Six1-Eya2 blk -12.0, TRPML1 ag 0.9, TRPML1 blocker 8.2, D2 PAM -2.0 and CtBP-E1A blk -6.2.
CC(=O)c1c(C)[nH]c(C(=O)COC(=O)CNS(=O)(=O)c2ccccc2)c1C was read as TRPV1 potentiator 0.9, Six1-Eya2 blk -1.9, TRPML1 ag -0.1, TRPML1 blocker -8.8, D2 PAM -0.9 and CtBP-E1A blk -1.4.
Screening COC(=O)c1ccc(C(=O)OC)c(NC(=O)CSc2n[nH]c(N)n2)c1 returned Six1-Eya2 blk 5.4, TRPML1 ag -0.4, TRPML1 blocker 3.4, D2 PAM 2.7 and CtBP-E1A blk 3.3.
`CCN(CC)S(=O)(=O)c1ccc(S(=O)(=O)N2CCC(C(=O)NC3CCN(Cc4ccccc4)CC3)CC2)cc1` gave TRPV1 potentiator 1.6, Six1-Eya2 blk 1.3, TRPML1 ag 0.5, TRPML1 blocker 33.4, D2 PAM -3.9 and CtBP-E1A blk 4.6.
`COc1ccc(-n2cnc3cc(NS(=O)(=O)c4ccccc4)ccc32)cc1` gave TRPV1 potentiator -12.6, Six1-Eya2 blk -18.0, TRPML1 ag 2.4, TRPML1 blocker 8.6, D2 PAM -1.4 and CtBP-E1A blk -21.5.
Screening COc1cc(NS(=O)(=O)c2ccc(N/C=C(\C#N)c3nc4cc(Cl)ccc4o3)cc2)nc(OC)n1 returned TRPV1 potentiator -8.3, Six1-Eya2 blk -18.4, TRPML1 ag -1.1, TRPML1 blocker 13.6, D2 PAM 10.9 and CtBP-E1A blk -3.5.
Screening CC(Oc1ccc(Cl)cc1)C(=O)Nc1nccs1 (stereo unspecified) returned TRPV1 potentiator -8.0, Six1-Eya2 blk 3.2, TRPML1 ag 0.4, TRPML1 blocker 8.4, D2 PAM 2.8 and CtBP-E1A blk 2.3.
For CCc1ccc(CCN2C(=O)c3ccccc3C2=O)nc1 the results were TRPV1 potentiator -4.6, Six1-Eya2 blk 5.9, TRPML1 ag -0.3, TRPML1 blocker -11.1, D2 PAM -8.4 and CtBP-E1A blk 6.3.
For O=C1c2cccnc2C(=O)N1Cc1ccc(S(=O)(=O)NCc2ccco2)cc1 the results were TRPV1 potentiator 3.0, Six1-Eya2 blk -8.4, TRPML1 ag 0.4, TRPML1 blocker 32.7, D2 PAM -15.3 and CtBP-E1A blk -6.1.
Cc1nc(-c2ccc(F)cc2)c(CC(=O)N(C)CC(=O)Nc2ccc(Br)cc2C)s1 was read as TRPV1 potentiator -6.1, Six1-Eya2 blk -11.7, TRPML1 ag -0.3, TRPML1 blocker 19.0, D2 PAM -5.1 and CtBP-E1A blk -3.5.
S=c1nc(-c2ccccc2)[nH]c2ccccc12 was read as TRPV1 potentiator 3.1, Six1-Eya2 blk -6.8, TRPML1 ag -0.3, TRPML1 blocker 9.4, D2 PAM -21.8 and CtBP-E1A blk 0.8.
Cc1nc(-c2ccc(Cl)cc2)sc1C1(C)CC(c2ccc(OC(F)(F)F)cc2)=NO1 (stereo unspecified) was read as TRPV1 potentiator 14.4, Six1-Eya2 blk 3.7, TRPML1 ag 0.1, TRPML1 blocker -10.4, D2 PAM -32.5 and CtBP-E1A blk -2.9.

Next part; the last 4 above are carried over.
For O=C1c2cccnc2C(=O)N1Cc1ccc(S(=O)(=O)NCc2ccco2)cc1 the results were TRPV1 potentiator 3.0, Six1-Eya2 blk -8.4, TRPML1 ag 0.4, TRPML1 blocker 32.7, D2 PAM -15.3 and CtBP-E1A blk -6.1.
Cc1nc(-c2ccc(F)cc2)c(CC(=O)N(C)CC(=O)Nc2ccc(Br)cc2C)s1 was read as TRPV1 potentiator -6.1, Six1-Eya2 blk -11.7, TRPML1 ag -0.3, TRPML1 blocker 19.0, D2 PAM -5.1 and CtBP-E1A blk -3.5.
S=c1nc(-c2ccccc2)[nH]c2ccccc12 was read as TRPV1 potentiator 3.1, Six1-Eya2 blk -6.8, TRPML1 ag -0.3, TRPML1 blocker 9.4, D2 PAM -21.8 and CtBP-E1A blk 0.8.
Cc1nc(-c2ccc(Cl)cc2)sc1C1(C)CC(c2ccc(OC(F)(F)F)cc2)=NO1 (stereo unspecified) was read as TRPV1 potentiator 14.4, Six1-Eya2 blk 3.7, TRPML1 ag 0.1, TRPML1 blocker -10.4, D2 PAM -32.5 and CtBP-E1A blk -2.9.
`Cc1cccc(N2CCN(C(=O)/C=C/c3ccco3)CC2)c1C` gave TRPV1 potentiator -22.4, Six1-Eya2 blk -0.3, TRPML1 ag 1.4, TRPML1 blocker 30.1, D2 PAM -18.4 and CtBP-E1A blk 0.7.
CC(Oc1cccc(Cl)c1)C(=O)Nc1cc(S(=O)(=O)N2CCCCC2)ccc1N1CCOCC1 (stereo unspecified) was read as TRPV1 potentiator 0.2, Six1-Eya2 blk -10.6, TRPML1 ag 1.2, TRPML1 blocker 28.5, D2 PAM -1.2 and CtBP-E1A blk 0.5.
CCOc1cc(C2C(C(C)=O)=C(O)C(=O)N2CCc2c[nH]c3ccccc23)ccc1O (stereo unspecified) was read as TRPV1 potentiator 8.2, Six1-Eya2 blk 6.7, TRPML1 ag -0.4, TRPML1 blocker -1.9, D2 PAM 5.0 and CtBP-E1A blk -4.7.
`O=S(=O)(c1ccc(Cl)cc1)N1CCC2(CC1)CO2` gave TRPV1 potentiator -4.4, Six1-Eya2 blk 24.6, TRPML1 ag 0.0, TRPML1 blocker -1.6, D2 PAM -0.6 and CtBP-E1A blk 6.6.
`O=C(CSc1nc2ccccc2c(=O)n1-c1ccc(F)cc1)Nc1cc(S(=O)(=O)N2CCOCC2)ccc1Cl` gave TRPV1 potentiator -22.7, Six1-Eya2 blk -12.0, TRPML1 ag 3.0, TRPML1 blocker 10.7, D2 PAM 12.4 and CtBP-E1A blk -3.2.
Cc1cc(C)n(C(=O)CNC(=O)CCc2ccccc2)n1 was read as TRPV1 potentiator 5.5, Six1-Eya2 blk 5.9, TRPML1 ag 0.2, TRPML1 blocker 10.1, D2 PAM -14.2 and CtBP-E1A blk 2.3.
Screening CCCSc1ccccc1C(=O)N1CCN(C(=O)c2ccco2)CC1 returned TRPV1 potentiator -7.2, Six1-Eya2 blk -2.6, TRPML1 ag 0.9, TRPML1 blocker 0.3, D2 PAM 7.5 and CtBP-E1A blk -17.3.
COc1cc(N(C)C)c([N+](=O)[O-])cc1C(=O)N1CCOCC1 was read as TRPV1 potentiator 1.4, Six1-Eya2 blk -13.9, TRPML1 ag -0.3, TRPML1 blocker 31.4, D2 PAM -21.3 and CtBP-E1A blk 12.2.
For Cc1onc(-c2c(Cl)cccc2Cl)c1NC(=O)N1CCSCC1 the results were TRPV1 potentiator -4.6, Six1-Eya2 blk 1.9, TRPML1 ag -0.4, TRPML1 blocker -16.3, D2 PAM -4.2 and CtBP-E1A blk 3.7.
Cc1ccc(S(=O)(=O)c2c(N)n(NC(=O)c3ccccc3C)c3nc4ccccc4nc23)cc1 was read as TRPV1 potentiator 14.5, Six1-Eya2 blk -12.1, TRPML1 ag -0.3, TRPML1 blocker 4.6, D2 PAM 7.5 and CtBP-E1A blk -13.5.
CCOC(=O)Nc1ccc2c(COC(=O)C(NS(=O)(=O)c3ccc(Cl)cc3)C(C)O)cc(=O)oc2c1 (stereo unspecified) was read as Six1-Eya2 blk -24.9, TRPML1 ag 0.2, TRPML1 blocker 16.3, D2 PAM 16.2 and CtBP-E1A blk -7.2.
`CC(=O)Nc1ccc(NC(=O)C2CCCN2S(=O)(=O)c2cccc(C(F)(F)F)c2)cc1` (stereo unspecified) gave TRPV1 potentiator 1.9, Six1-Eya2 blk -7.6, TRPML1 ag -0.4, TRPML1 blocker 11.0, D2 PAM -4.6 and CtBP-E1A blk -3.8.
Screening CC(C)C[C@H](NC(=O)Nc1ccccc1F)C(=O)O returned TRPV1 potentiator 7.8, Six1-Eya2 blk 7.8, TRPML1 ag -0.5, TRPML1 blocker -1.3, D2 PAM -7.7 and CtBP-E1A blk 3.7.
For O=C(Nc1cccnc1)C1Cc2c(-c3ccco3)ccnc2O1 (stereo unspecified) the results were Six1-Eya2 blk -1.3, TRPML1 ag -0.4, D2 PAM -3.6 and CtBP-E1A blk 0.6.
Screening CC(C)Cn1c(N)c(C(=O)CSc2ncccn2)c(=O)n(C)c1=O returned TRPV1 potentiator -6.9, Six1-Eya2 blk -8.2, TRPML1 ag 0.7, TRPML1 blocker 1.5, D2 PAM -7.1 and CtBP-E1A blk 0.1.
`CCCCNS(=O)(=O)c1cccc(S(=O)(=O)N2CCCC2)c1` gave TRPV1 potentiator -0.1, Six1-Eya2 blk 5.0, TRPML1 ag 0.9, TRPML1 blocker 5.5, D2 PAM 5.8 and CtBP-E1A blk 12.3.
Screening O=C(/C=C1\NC2(CCCC2)Cc2ccccc21)N1CCOCC1 returned TRPV1 potentiator -15.9, Six1-Eya2 blk -2.3, TRPML1 ag 1.7, TRPML1 blocker -0.4, D2 PAM -11.7 and CtBP-E1A blk -7.5.
`O=C(c1cc(-c2ccc(Cl)cc2)n(-c2ccc(Cl)c(Cl)c2)n1)N1CCOCC1` gave TRPV1 potentiator -4.6, Six1-Eya2 blk -6.1, TRPML1 ag 1.3, TRPML1 blocker 51.8, D2 PAM -14.0 and CtBP-E1A blk 5.8.
For CCn1cc(C(=O)NCCCOC)c(=O)c2cc(S(=O)(=O)N(C)C3CCCCC3)ccc21 the results were TRPV1 potentiator -3.2, Six1-Eya2 blk -20.3, TRPML1 ag 0.2, TRPML1 blocker 11.8, D2 PAM -1.1 and CtBP-E1A blk -15.7.
O=C1NC[C@H](Cc2ccc(O)cc2)N(C[C@@H]2CCCN2C[C@H](Cc2ccccc2)N2C[C@H](Cc3ccc(O)cc3)N(CC3CCCCC3)C(=O)C2=O)C1=O was read as Six1-Eya2 blk -17.1, TRPML1 ag 0.1 and CtBP-E1A blk -14.1.
CC(C)NC(=O)COc1coc(CN2CCN(C(=O)c3ccco3)CC2)cc1=O was read as TRPV1 potentiator 2.6, Six1-Eya2 blk -3.5, TRPML1 ag 0.1, TRPML1 blocker -7.2, D2 PAM -22.4 and CtBP-E1A blk 7.2.
Cc1ccc2[nH]c(C)c(CCNC(=O)NC3CCCCC3)c2c1 was read as TRPV1 potentiator -18.1, Six1-Eya2 blk -20.7, TRPML1 ag 0.1, TRPML1 blocker 0.9, D2 PAM -7.7 and CtBP-E1A blk 1.0.
For Cc1onc(-c2ccccc2Cl)c1C(=O)OCC(=O)c1ccccc1 the results were TRPV1 potentiator -7.9, Six1-Eya2 blk 19.1, TRPML1 ag 3.0, TRPML1 blocker -0.3, D2 PAM 3.2 and CtBP-E1A blk 12.4.
Cc1cccc(-c2nnc(SCc3ccc(C#N)cc3)n2Cc2ccco2)c1 was read as TRPV1 potentiator 11.1, Six1-Eya2 blk -8.9, TRPML1 ag 4.1, TRPML1 blocker 39.8, D2 PAM -11.9 and CtBP-E1A blk -7.6.
Screening CCCCCC(=O)Nc1ccc2oc(-c3ccncc3)nc2c1 returned TRPV1 potentiator 9.9, Six1-Eya2 blk 0.5, TRPML1 ag 4.0, TRPML1 blocker 9.2, D2 PAM 1.1 and CtBP-E1A blk -1.1.
`COc1ccc(CNc2nc(=S)[nH]c3cc(OC)c(OC)cc23)cc1` gave TRPV1 potentiator 0.6, Six1-Eya2 blk -81.6*, TRPML1 ag -0.6, TRPML1 blocker 3.2 and D2 PAM -10.4.
